High-throughput results from PubChem BioAssay.
NPYLR7 agonist = agonists of mosquito NPYLR7 receptor, primary screen, cell-based, Aedes aegypti, calcium fluorescence, mosquito biting behavior; Aedes aegypti neuropeptide Y-like receptor 7 (NPYLR7); HEK293T NPYLR7/Galpha15, GCaMP6s calcium fluorescence; activation, % at 10 µM; 270,000 compounds, 0.15% hits; in the data active = activation above about 40%;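 also: 0% = vehicle and 100% = reference agonist at the receptor; some compounds past the cut are filed as inactive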
NPYLR7 agonist max-min = also measured in NPYLR7 agonist; calls as there; activation, %; measured here: Max-Min RFU normalised activation; some inactives read as strong as hits;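 span of the calcium signal over five minutes; 0% = vehicle and 100% = native peptide agonist; compound fluorescence can raise it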
* marks the source's active call; other numbers are inactive results; & = joins results of further samples.

SMILES	NPYLR7 agonist	NPYLR7 agonist max-min
COCCN1C(=O)C2C(c3ccc(O)cc3)NN(C)C2C1=O (configuration not stated)	10.3	4.8
O=C(NCC1COc2ccccc2O1)N1CCc2sccc2C1 (configuration not stated)	6.0	4.9
COCCNC(=O)Cn1nc2c(c1NC(=O)COc1ccc(Cl)cc1)CSC2	-2.6	3.0
CCCNC(=O)CN1CCN(c2ncnc3cc(Cl)ccc23)CC1	7.7	2.9
O=C(CC1C(=O)NCCN1Cc1cccc(C(F)(F)F)c1)NCCc1ccccc1 (configuration not stated)	7.8	4.0
COc1ccc2c(c1)CC(NCC1(Cn3cccn3)CC1)CC2 (configuration not stated)	12.8	12.6
COCCN(C)C(=O)c1cccc(-n2cc(NC(=O)Cc3cccc(C)c3)cn2)c1	17.7	5.1
CCCCn1nc(C(=O)N2CCc3[nH]c4ccccc4c3C2)ccc1=O	4.8	1.2
COCc1cc(=O)[nH]c(Sc2c(-c3ccccc3)c3ccc(Cl)cc3[nH]c2=O)n1	-16.8	-19.2
CCc1ccc(CN2CCC(=O)N(Cc3ccccc3)C(CC)C2)nc1 (configuration not stated)	2.0	0.7
CN(C)Cc1cc(CNc2nccnc2C#N)ccc1F	7.0	4.8
CCN(CC)S(=O)(=O)c1ccc(NC(=O)C=Cc2ccco2)cc1	-2.6	-4.7
O=C1N(c2ccc3c(c2)OCO3)C(c2ccco2)C1(F)F (configuration not stated)	2.5	-1.3
NC(=O)C1CCCN1S(=O)(=O)c1ccc(O)c(C(=O)O)c1 (configuration not stated)	16.8	16.0
O=C1OC23CCC(CC2)N(CCO)C3CN1Cc1ccccc1 (configuration not stated)	2.2	12.2
COC(=O)CC(=O)N1CCc2c([nH]c3ccc(OC)cc23)C1c1ccc(-c2ccccc2C(F)(F)F)o1 (configuration not stated)	4.4	-0.9
Cn1ncc(C#N)c1NC(=O)c1ccc(OC(F)F)cc1	2.8	0.2
Cc1ccc(OC(=O)c2ccc(C)c([N+](=O)[O-])c2)cn1	-1.1	-3.0
O=S(=O)(c1cccc(-c2nnc(SCC3CCCCC3)n2C2CCCC2)c1)N1CCOCC1	-1.5	13.3
C=CCN=C(NC(=O)c1ccc(Cl)c(Cl)c1)OCC	-18.3	-11.4
CN(C(=O)c1cccc(OC2CCN(S(=O)(=O)N(C)C)CC2)c1)C1CCOC1 (configuration not stated)	-6.4	-8.4
O=C(Nc1cccc(Cl)c1)N1CCCC(OCc2cccc(C(F)(F)F)c2)C1 (configuration not stated)	-6.7	0.3
Cn1cc(CNCCN2CCNC2=O)c(-c2ccc(C3CCCCC3)cc2)n1	0.0	-4.1
CC(=O)N1N=C(c2ccc(C(C)(C)C)cc2)OC1C(=O)O (configuration not stated)	9.0	0.9
CCCCn1cnc2c(nnn2C)c1=O	-0.5	10.1

(continued)
SMILES	NPYLR7 agonist	NPYLR7 agonist max-min
CN(Cc1ccccc1C(F)(F)F)CC(O)CO (configuration not stated)	5.3	4.5
Cc1cccnc1C(C)NC(=O)CSCc1ccccc1Cl (configuration not stated)	-1.7	-0.1
COc1cc(CN2CCCC(N3CCOCC3)C2)ccc1OCc1ccccc1 (configuration not stated)	-1.1	-4.4
CCN1C(=O)C2(SCCN2C(=O)c2ccccc2C)c2cc(Cl)ccc21 (configuration not stated)	-5.7	3.1
O=C(NCc1ccccc1)c1cc(C2CCCCN2S(=O)(=O)Cc2ccccc2)on1 (configuration not stated)	2.6	-1.3
CC(=Cc1ccccc1)/C=N\NC(=O)c1cc(C(C)C)[nH]n1	0.7	2.2
CCc1ccc(-n2c(C(C)N(CCc3ccccc3)C(=O)Nc3c(C(C)C)cccc3C(C)C)nc3ccccc3c2=O)cc1 (configuration not stated)	-3.0	-8.2
O=C(Nc1ccc(OC(F)(F)F)cc1)Nc1nc([C@@H]2O[C@H](CO)[C@@H](O)[C@H]2O)cs1	17.3	17.8
COCCn1c(C)c(C)n2c3c(=O)n(CCc4ccccc4)c(=O)n(C)c3nc12	11.8	6.8
CCCOc1ccc(N2C(=O)CC(SC(N)=N/N=C(C)\C=C\c3ccc(N(C)C)cc3)C2=O)cc1 (configuration not stated)	4.5	4.3
CN(C)c1ccc(C2C3C(=O)NC(=O)C3ON2c2ccc(Cl)cc2)cc1 (configuration not stated)	13.4	6.2
O=Cc1cccc(-c2nccnc2N2CCN(c3ccncc3)CC2)c1	0.5	-4.7
c1ccc(Cn2cccn2)c(CN2CCC3(CCNCC3)CC2)c1	-6.1	-10.8
Cc1ccccc1CO[C@]1(C(=O)NCC2CC2)CC(OCc2cccc(F)c2F)[C@@H]2OC(C)(C)O[C@@H]2C1 (some centres not stated)	2.1	18.2
CC(C)(C)CC(=O)N1CCN(c2ncnc3c2nnn3-c2ccccc2)CC1	-15.4	-25.3
O=C(Nc1cccc(C2SCC(=O)N2c2ccc(C(F)(F)F)cc2)c1)c1ccccc1Br (configuration not stated)	-0.5	0.3
CCCNC(=O)C1(C)CCCN(Cc2c(C)nn(-c3ccccc3)c2C)C1 (configuration not stated)	3.4	3.3
COc1cccc(CC2(CO)CCN(C(=O)C3(C)CCCCO3)CC2)c1 (configuration not stated)	-0.1	-3.5
CCOCC(O)CN(Cc1c(-c2ccccc2)noc1N1CCN(C)CC1)CC1CC1 (configuration not stated)	9.1	9.8
COc1ccc(C(N)c2csc(Nc3cc(Oc4ccccc4)ncn3)n2)cc1 (configuration not stated)	-4.7	-10.4
CN(C)c1nc2c(c(N(C)C)n1)CCN(C(=O)c1ncccc1O)C2	8.2	4.8
Cc1cc(-n2nc(C)cc2C)n2ncc(-c3ccccc3)c2n1	0.0	-3.8
O=C(c1ccccc1F)N(CC(=O)N1CCc2sccc2C1COc1cccc(F)c1)CC1CCCO1 (configuration not stated)	-3.9	1.1
CNS(=O)(=O)CC1CCCN1Cc1occc1C(=O)OC (configuration not stated)	4.4	3.0
Cc1cc(Oc2cccc(Cl)c2)nc(SCc2ccccc2C#N)n1	-13.0	-6.6

New compounds follow:
SMILES	NPYLR7 agonist	NPYLR7 agonist max-min
CC(C)(C)CC(=O)N(Cc1ccc(F)cc1F)CC1CC(c2ccc(Cl)o2)=NO1 (configuration not stated)	10.8	6.6
CCC(=O)N1CC(C(=O)N2CCCCC2)C(c2cc(OC)c(OC)c(OC)c2)C1 (configuration not stated)	23.7	13.9
C=CCN(CC=C)Cc1ccc(OCC(O)CN2CCC(C(=O)OC)CC2)cc1 (configuration not stated)	3.4	0.8
COc1cccc(CCC(=O)N2CCN(S(=O)(=O)N3CCCC3)CC2)c1	5.7	3.6
Cn1ccnc1SCc1ccc(Cl)cc1Cl	-3.9	-2.4
Cc1c(CN(C)Cc2cccc(C(C)(C)C)c2O)cnn1C	10.6	7.7
CC1CCCN(C(C)C(=O)Nc2ccc(N3CCOCC3)cc2)C1 (configuration not stated)	4.6	2.8
CC(=O)[C@@H]1C[C@H](CC(=O)N2CCC(C(O)(c3ccccc3)c3ccccc3)CC2)C1(C)C	5.3	8.2
Cc1nc(C)c(-c2csc(Nc3ncccn3)n2)s1	-4.5	-3.0
CC(C)n1c(N)nnc1SCc1ccn(-c2cccc(F)c2)n1	-6.2	-7.4
CCOc1ccc2nc(NC(=O)CCC(=O)O)sc2c1	-11.9	-15.6
CCc1cccc(NC(=O)N(CCOC)CC(=O)N(CCc2c[nH]c3ccccc23)Cc2ccccc2OC)c1	-7.8	1.0
CCCCCN(C(=O)Nc1cc(F)ccc1F)C(C)C	-2.5	-3.4
Cc1cc(CN(c2ccccc2Br)S(C)(=O)=O)no1	-3.0	-3.0
O=C(OCC(=O)c1ccc[nH]1)C1=COCCO1	-3.8	-1.4
CCc1cccc2c(C(CC(=O)NC(C)C)c3ccc(OC)cc3)c[nH]c12 (configuration not stated)	2.8	11.2
CN(CC1CCN(c2ccccc2)C1)C(=O)c1cc2ncccn2n1 (configuration not stated)	1.8	2.4
COc1ccc(C(=O)COC(=O)c2cccc(F)c2)cc1	-0.8	-0.9
O=C1N=c2ccccc2=C1c1sc(=S)n(CCc2ccccc2)c1O	-7.1	-12.4
O=C(Nn1cnnc1)c1sc2cccc(F)c2c1Cl	-1.5	-1.7
CCCc1ncc(-c2ccc(OCC)c(OCC)c2)[nH]1	1.7	2.1
CC1CCCC(NC(=O)c2ccccc2OC(F)F)C1C (configuration not stated)	3.0&3.4	1.8&0.5
O=C(Nc1ccc(CC(=O)N2CCC(O)CC2)cc1)Nc1c(F)cccc1F	-7.4	-9.2
CC(C)S(=O)(=O)Oc1ccc(CN(CC2CCCO2)C(=O)c2ccco2)cc1 (configuration not stated)	-1.4	10.5
O=S(=O)(Cc1ccccc1)N1CCN(Cn2nnc(-c3ccccc3)n2)CC1	4.2	4.9

Next results
SMILES	NPYLR7 agonist	NPYLR7 agonist max-min
CCOC(=O)C1(C/C=C/c2ccccc2)CCCN(Cc2nccn2CC)C1 (configuration not stated)	4.7	3.1
Cc1ccsc1CN1CCCC(OCc2cccnc2)C1 (configuration not stated)	7.5	6.2
CCN(CC)C(=O)C12CC3CC(CC(Br)(C3)C1)C2	6.7	5.4
CC(=O)Nc1ccc(C(=O)N2CC(=O)N3CCc4ccc(F)cc4C3C2)cc1 (configuration not stated)	12.9	10.1
O=C(O)C1C2C=CC(C2)C1C(=O)NCC1CCCO1 (configuration not stated)	-2.6	-4.7
CCN1CCN(Cc2cc(C(=O)N3CCN(C4CCCC4)CC3)no2)CC1	-6.8	-6.4
Clc1cnccc1CN1CCC(c2cc(Cc3ccccc3)[nH]n2)CC1	1.2	0.4
CC(=O)N(CN1C(=O)c2ccccc2C1=O)c1ccc(I)cc1	3.9	5.0
Cc1cc(NC(=O)c2csc([C@@H]3C[C@H](O)[C@@H](CO)O3)n2)no1	3.8	1.4
COc1ccc(CC(NC(=O)CC2C=CS(=O)(=O)C2)c2ccc(OC)cc2)cc1 (configuration not stated)	-3.5	-4.5
Cc1cc(CNCC2CCCCO2)ccc1N (configuration not stated)	0.8	21.4
CCc1ccc(-c2cc3c(SCC(=O)Nc4ccc(C(=O)OC)cc4)nccn3n2)cc1	-0.7	-4.1
Cc1cc(C)cc(CSc2nnc(NC(=O)COCc3ccccc3)s2)c1	-3.9	3.8
N#CC1CC(c2ccc(O)cc2)=NO1 (configuration not stated)	-1.2	-5.7
O=C(O)c1cc(O)c2c(O)c3c(O[C@H]4O[C@H](CO)[C@@H](O)[C@H](O)[C@H]4O)cccc3c(-c3c4cc(C(=O)O)cc(O)c4c(O)c4c(O[C@H]5O[C@H](CO)[C@@H](O)[C@H](O)[C@H]5O)cccc34)c2c1	-17.2	-18.7
CCOC(=O)N1CCN(/C=C(\C#N)C(=O)NCc2ccccc2)CC1	8.5	7.6
CN(C)S(=O)(=O)c1ccc(NC(=O)C=Cc2ccco2)cc1	-5.6	-6.7
CC(C)CCC(C)NC(=O)c1cc(O)cs1 (configuration not stated)	-4.4	-4.7
C=CCc1c(C)nc(-c2ccccc2)nc1Nc1ccc([N+](=O)[O-])cc1	-8.7	-15.3
CC1CCCC(NC(=O)Cn2cnc3c(oc4ccccc43)c2=O)C1C (configuration not stated)	5.0	4.6
c1cnc(-c2cc(NCc3cccnc3)nc3[nH]ccc23)nc1	10.2	3.9
CC(C)CC(NC(=O)c1ccn(C)c(=O)c1)c1cccs1 (configuration not stated)	-3.3	-6.2
COCCN1CCC(Cn2cnnc2)C1 (configuration not stated)	-3.9	-3.1
CCn1c(C)nnc1CN1CCC(CN2CCCCC2)C1 (configuration not stated)	2.1	-7.2
COc1ccc(C(=O)NNc2nc3c(C)c(C)ccc3s2)cc1OC	5.3	-0.1
CCc1nc2n(n1)C(=O)C(C(c1ccc(Br)cc1)N1CCC(C(N)=O)CC1)S2 (configuration not stated)	-2.7	9.9
Cc1c(C(=O)NCc2ccc(Cl)c(Cl)c2)sc(=O)n1Cc1ccncc1	12.3	6.8
O=C(Nc1n[nH]c2c(Cl)cccc12)c1csc(Br)c1	3.2	-55.2
CC1CN(c2cc(Cl)nc(SCC(=O)N3CCN(c4cccc(Cl)c4)CC3)n2)CCN1C(=O)c1ccc(F)cc1 (configuration not stated)	1.4	1.2

Structures shown so far that have an NH in an aromatic ring:
SMILES	NPYLR7 agonist	NPYLR7 agonist max-min
CCCCn1nc(C(=O)N2CCc3[nH]c4ccccc4c3C2)ccc1=O	4.8	1.2
COCc1cc(=O)[nH]c(Sc2c(-c3ccccc3)c3ccc(Cl)cc3[nH]c2=O)n1	-16.8	-19.2
COC(=O)CC(=O)N1CCc2c([nH]c3ccc(OC)cc23)C1c1ccc(-c2ccccc2C(F)(F)F)o1 (configuration not stated)	4.4	-0.9
CC(=Cc1ccccc1)/C=N\NC(=O)c1cc(C(C)C)[nH]n1	0.7	2.2
CCc1cccc(NC(=O)N(CCOC)CC(=O)N(CCc2c[nH]c3ccccc23)Cc2ccccc2OC)c1	-7.8	1.0
O=C(OCC(=O)c1ccc[nH]1)C1=COCCO1	-3.8	-1.4
CCc1cccc2c(C(CC(=O)NC(C)C)c3ccc(OC)cc3)c[nH]c12 (configuration not stated)	2.8	11.2
CCCc1ncc(-c2ccc(OCC)c(OCC)c2)[nH]1	1.7	2.1
Clc1cnccc1CN1CCC(c2cc(Cc3ccccc3)[nH]n2)CC1	1.2	0.4
c1cnc(-c2cc(NCc3cccnc3)nc3[nH]ccc23)nc1	10.2	3.9
O=C(Nc1n[nH]c2c(Cl)cccc12)c1csc(Br)c1	3.2	-55.2

Some of the compounds tested; count on the stated rates, not on these rows.
